ALR H2O2 inh – human ALR oxidase inhibition via reduced H2O2 | P55789 | purified ALR, DTT oxidation, H2O2 HRP-luminol luminescence | inhibition, % (concentration not given with the values) | hit rate 3.8% among 290,000 | AID 485317;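 active = mean and each replicate at 75% or more; inconclusive = only one of the two met; inactive = neither met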;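 also: stock transfer was 7.5 nL into about 7.5 µL; 0% = neutral wells and 100% = wells with inactivated enzyme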
Target sequence (P55789 whole entry, looked up): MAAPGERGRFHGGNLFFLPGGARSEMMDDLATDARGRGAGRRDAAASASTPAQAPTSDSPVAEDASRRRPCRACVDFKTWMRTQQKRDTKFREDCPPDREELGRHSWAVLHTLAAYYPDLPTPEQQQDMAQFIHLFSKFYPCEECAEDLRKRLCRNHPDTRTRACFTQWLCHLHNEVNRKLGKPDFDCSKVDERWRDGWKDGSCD
E coli growth – inhibitors of Escherichia coli growth; OD600, 23 h; stronger effect = lower value; AID 1053175; OD600 absorbance (no concentration beside the values); hit rate 0.21% among 330,000;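 active = OD600 absorbance below the run mean of sample wells minus 3.6 SD, in any replicate, cut at about 0.56 in these data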;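 also: stock transfer was 300 nL into about 60 µL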
Vif TR-FRET – inhibitors of Vif binding to APOBEC3G peptide, primary screen, biochemical, TR-FRET, GST-Vif 1-94, biotin-A3G peptide, dose response retest (AID 1117319) | inhibition, %, or IC50 in µM where a hit was titrated | TR-FRET GST-Vif / biotin-A3G peptide binding; higher % means a stronger effect; test concentration not given here; strong numbers were not always called active | hit rate 0.57% among 260,000;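 active = above the screen mean plus three standard deviations and confirmed in dose response; inconclusive = results disagree or hit not tested in dose response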;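 also: Vif residues 1-94 fused to GST binding biotinylated APOBEC3G peptide 110-148; 0% = full assay without inhibitor and 100% = GST in place of GST-Vif; retest series ran down from 100 µM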
rRNA inh HTS – inhibitors of bacterial rRNA selective over humanized ribosomes | E. coli WT GFP vs humanized-ribosome RFP mutants, fluorescence, 24 h; stronger effect = lower value; DMSO median 0, no signal -100 | GFP signal change (wild-type ribosome), % (concentration not given with the values) | hit rate 1.6% among 350,000;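 active = significant combined selectivity score with lowered wild-type GFP, culture density cut under 30%, mutant RFP and density less affected; inactive = any of these conditions unmet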; also: one replicate is shown; some compounds called inactive have numbers as strong as hits
FGF22 binding – shifts melting point of recombinant human FGF22 | calls only at 9.99 µM | recombinant FGF22 thermal shift, SYPRO orange fluorescence; percent of sucrose octasulfate shift, DMSO zero | Q9HCT0 | hit rate 1.5% among 340,000 | AID 651658;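 active = melting point raised past a set limit in the mean and every replicate; inconclusive = no clear call; three in four hits are not shown here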
Target sequence (Q9HCT0 whole entry, looked up): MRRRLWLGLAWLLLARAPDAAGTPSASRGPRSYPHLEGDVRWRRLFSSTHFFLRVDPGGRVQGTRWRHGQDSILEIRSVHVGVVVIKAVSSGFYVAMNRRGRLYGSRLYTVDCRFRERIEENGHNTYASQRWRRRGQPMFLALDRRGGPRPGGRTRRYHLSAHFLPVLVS
AF4-AF9 inh – blocks AF4 peptide binding to human AF9 | AlphaScreen, biotin-AF4 peptide binding to FLAG-AF9 | inhibition, % at 10 µM | hit rate 0.47% among 350,000;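 active = every replicate reaching a set inhibition limit, whatever the replicate mean, cut at about 25% in these data; inconclusive = mean inhibition reaches that limit but some replicates miss it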;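 also: 0% = plate neutral control median and 100% = total signal loss; the record names both 10 and 1 µM as test concentration; the first replicate is given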
HNF4A DNA FP – change in binding of human HNF4 alpha to DNA | P41235 | activity change, % at 10 µM | hit rate 0.3% among 360,000 | HNF4a-FITC DNA binding, fluorescence polarization, 1 h; in the data active = activity change above about 30%, passing the limit was not always enough;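 also: controls were the assay level and a saturating level of protein; the project sought stronger binding though the title names inhibitors; some compounds called inactive have numbers as strong as hits; positive values seem to mean higher polarization but the record does not say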
Target sequence (P41235 whole entry, looked up): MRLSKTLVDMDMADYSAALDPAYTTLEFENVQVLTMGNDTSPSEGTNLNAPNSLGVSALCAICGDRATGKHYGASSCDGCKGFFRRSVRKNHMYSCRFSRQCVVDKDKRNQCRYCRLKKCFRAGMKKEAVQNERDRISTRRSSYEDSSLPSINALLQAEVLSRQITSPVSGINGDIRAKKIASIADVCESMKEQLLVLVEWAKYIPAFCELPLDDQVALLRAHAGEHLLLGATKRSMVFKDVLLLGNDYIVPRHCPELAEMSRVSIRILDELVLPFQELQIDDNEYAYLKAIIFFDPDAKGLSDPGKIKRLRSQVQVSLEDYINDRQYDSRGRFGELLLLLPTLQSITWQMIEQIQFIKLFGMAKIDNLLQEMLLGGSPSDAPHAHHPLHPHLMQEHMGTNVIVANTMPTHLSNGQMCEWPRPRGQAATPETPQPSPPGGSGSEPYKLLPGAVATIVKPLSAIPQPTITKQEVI
rRNA inh HTS OD600 – also measured in rRNA inh HTS; calls as there; OD600 change, %; measured here: OD600 growth;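 optical density of the mix in the first replicate; 0 = DMSO median and -100 = no signal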
rRNA inh HTS RFP – also measured in rRNA inh HTS; calls as there; RFP signal change, %; measured here: RFP humanized mutant strains;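 first replicate; 0 = DMSO median and -100 = no signal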
Numbers without * were called inactive; i = inactive; ? = inconclusive; nt = no result given; + = active, no number; & = joins results of further samples. Some of the compounds tested; count on the stated rates, not on these rows.

SMILES | ALR H2O2 inh | E coli growth | Vif TR-FRET | rRNA inh HTS | rRNA inh HTS OD600 | rRNA inh HTS RFP | FGF22 binding | AF4-AF9 inh | HNF4A DNA FP
CN(/N=C/c1ccc([N+](=O)[O-])o1)c1ccccc1 | -18 | nt | nt | -32 | -36 | -0.1 | i | 20 | -0.5
N/C(=N\OC(=O)Cc1ccccc1[N+](=O)[O-])c1ccncc1 | -12 | nt | -1% | nt | nt | nt | i | -2.2 | 0.6
COc1ccccc1C(=O)COC(=O)CSCC(=O)Nc1cc(C)on1 | 2 | 0.64 | 5% | 13 | 6 | 3.9 | i | -0.8 | 3.8
NC(=S)NN=C1CCC2(CCCCC2)CC1 | nt | 0.68 | -8% | 4 | 8 | -14 | i | -1.6 | 1.1
O=C(NC1CCCCC1)c1ccc(-c2ccccc2F)o1 | nt | 0.67 | 4% | -15 | -47 | -6.3 | i | -1.3 | 3.9
O=C1C(=Cc2cn(-c3ccccc3)nc2-c2ccc(OCc3ccccc3)cc2)SC(=S)N1CCS(=O)(=O)O | nt | nt | nt | 19 | 16 | 15 | i | 11 | -46
Cc1cc2c3c(c1C)C1(C(=O)N3C(C)(C)CC2C)C(C#N)=C(N)Oc2n[nH]c(C)c21 (configuration not stated) | -24 | 0.68 | 0% | -2 | -5 | 9.6 | i | -4.4 | 2.8
O=C(Cc1cccc2ccccc12)N/N=C/c1ccncc1 | 3 | nt | nt | 5 | 0 | 1.0 | i | 0.9 | 1.2
CCC(C)NC(=O)C1CCC(CNS(=O)(=O)c2ccc3c(c2)CC(C)N3C(C)=O)CC1 (configuration not stated) | -4 | 0.69 | 5% | 14 | 14 | 2.1 | i | -4.9 | 2.8
COCC#Cc1ccc2c(c1)O[C@H](CN(C)Cc1cncnc1)[C@@H](C)CN([C@@H](C)CO)S2(=O)=O | nt | nt | nt | -3 | 3 | -0.8 | i | 0.3 | nt
O=C(Nc1ccc(N2CCOCC2)cc1)c1ccc(Cl)nc1 | -13 | 0.74 | 7% | nt | nt | nt | nt | nt | 0.0
Cc1ccccc1Cn1ccc(-c2ccc3c(c2)OCO3)n1 | 1 | 0.7 | ? | nt | nt | nt | nt | nt | -1.4
O=[N+]([O-])c1ccc(N2CCN(C(=S)Nc3ccccc3)CC2)cc1 | -6 | nt | -8% | 9 | 11 | -0.2 | i | -0.7 | 0.0
COc1ccc(NC(=O)CCNC(=O)Cn2cnc3ccccc3c2=O)c(OC)c1 | -1 | 0.71 | -2% | nt | nt | nt | nt | nt | -0.9
Cc1ccc(C(=O)Nc2ccc(S(=O)(=O)N3CCCC3)cc2)o1 | -3 | 0.65 | nt | -15 | -13 | -7.5 | i | 1.8 | -1.6
CCCC#Cc1cnc2c(c1)C(=O)N([C@@H](C)CO)C[C@H](C)[C@@H](CN(C)S(C)(=O)=O)O2 | nt | nt | nt | 1 | 10 | -2.0 | i | -1.3 | nt
O=C(Nc1cccc(F)c1)N1CCCCN2[C@H](CO)[C@H](c3ccc(C#Cc4ccccc4)cc3)[C@H]2C1 | nt | nt | nt | -58 | -75 | -15 | i | 9.8 | nt
CSc1ccc(CCNC(=O)c2cc(C)nn2-c2ccccc2)cc1 | nt | 0.66 | -8% | 2 | -2 | -6.4 | i | 1.3 | 0.9
COc1ccc(NC(=O)CCc2c(C)nc3nc(CNC(=O)c4cccc(F)c4)nn3c2C)cc1OC | -24 | 0.67 | nt | 5 | 2 | 4.4 | i | 1.1 | -2.3
C[C@@H]1CN([C@@H](C)CO)C(=O)c2cc(/C=C/c3ccccc3)cnc2O[C@H]1CN(C)C(=O)Nc1ccc(C(F)(F)F)cc1 | nt | nt | nt | 0 | 7 | 1.6 | i | 0.5 | nt
NNC(=O)C(=O)/C=C1\NC2(CCCC2)Cc2ccccc21 | 0 | 0.69 | 6% | 11 | 12 | -0.3 | nt | 0.0 | -1.6
O=C(COC(=O)c1ccccc1Nc1ccccc1)NCc1ccccc1 | 97* | 0.64 | nt | nt | nt | nt | nt | nt | -5.2
C[C@H](CO)N1C[C@H](C)[C@@H](CN(C)Cc2ccc(C(F)(F)F)cc2)Oc2ccc(NC(=O)Nc3ccc(F)cc3)cc2C1=O | nt | nt | nt | 2 | -13 | 4.9 | i | 3.6 | nt
CCOC(=O)N1CCC(NC(=O)c2ccc3c(c2)N=C(CC)c2ccccc2S3)CC1 | -4 | 0.68 | 6% | 0 | -15 | 5.0 | i | 0.1 | 3.5
CC1CC(C)CN(C(=O)c2cc(-c3ccncc3)nc3ccccc23)C1 (configuration not stated) | 1 | 0.71 | 3% | -7 | -10 | -0.5 | i | 1.4 | 3.0
COc1ccc(C(=O)CC2OC(=O)c3c2ccc(OC)c3OC)cc1 (configuration not stated) | 2 | 0.72 | 5% | nt | nt | nt | nt | -1.2 | 3.1
CC(c1nc2ccccc2c(=O)[nH]1)N1CCCN(S(=O)(=O)c2ccc(F)cc2)CC1 (configuration not stated) | nt | 0.68 | 8% | -6 | -11 | 1.8 | i | 1.5 | 2.3
CCNC(=O)[C@@H]1[C@@H](CO)[C@@H]2Cn3c(cccc3=O)[C@@H]2N1C(=O)CC1CC1 | nt | nt | nt | 3 | 13 | -2.2 | i | -0.5 | nt
O=C(Nc1cc(S(=O)(=O)N2CCCC2)ccc1Cl)c1cc(F)c(F)c(F)c1F | 1 | 0.72 | -11% | 5 | 11 | -3.5 | i | -0.8 | 1.6
Cc1ccccc1-c1nnc2c3ccccc3c(C)nn12 | -3 | 0.75 | nt | nt | nt | nt | nt | nt | 0.1
COC(=O)[C@@]1(C)[C@H]2C(=O)N(C)C(=O)[C@H]2[C@H]2CN=C(SCc3ccc(Cl)cc3)N21 | nt | 0.7 | -1% | 4 | 10 | 7.7 | i | -3.7 | 0.3
Cc1cccc(C(C)Nc2ccc([N+](=O)[O-])cn2)c1 (configuration not stated) | -5 | 0.65 | 1% | nt | nt | nt | nt | nt | -1.8
Cc1cnn(CCC(=O)NNC(=S)Nc2ccc(F)cc2)c1 | 82* | 0.7 | 12% | nt | nt | nt | nt | nt | 0.8
COc1cc(S(=O)(=O)NCCCn2ccnc2)ccc1F | 1 | 0.69 | 8% | 5 | 2 | -3.6 | i | -1.9 | -3.6
O=C(CN1CCCCC1)NCCNC(=O)CN1CCCCC1 | -10 | 0.73 | -6% | nt | nt | nt | nt | nt | 0.7
COc1ccccc1CN1CCN(Cc2nc(-c3ccc(C)cc3)oc2C)CC1 | nt | 0.67 | nt | 13 | -1 | 3.9 | i | -13 | 0.8
CCOC(=O)C1=C(c2ccccc2)NC(=O)NC1c1ccc(OC)cc1 (configuration not stated) | 6 | 0.69 | nt | -12 | -8 | -1.6 | i | -2.4 | -3.9
CCOC(=O)c1c(NC(=O)CSc2nnc(-c3ccncc3)n2Cc2ccco2)sc(C(C)=O)c1C | nt | 0.71 | -15% | nt | nt | nt | nt | nt | 4.3
NS(=O)(=O)c1ccc(NC(=O)Cn2ncc3c2-c2ccccc2OC3)cc1 | nt | 0.64 | 19% | 7 | 16 | -2.5 | i | 7.2 | 0.9
CC(=O)NC(=S)Nc1cccc2c(C)cc(C)nc12 | -19 | 0.67 | -2% | 11 | 5 | 2.6 | i | -0.8 | -3.3
O=c1nc2s/c(=C\c3ccc(-c4ccccc4[N+](=O)[O-])o3)c(=O)n2nc1-c1ccccc1 | nt | nt | nt | 1 | 14 | 1.0 | i | 3.8 | -35
CC(C)(O)CCCC(C)(O)c1ccc(C(=O)O)cc1O (configuration not stated) | -4 | 0.71 | nt | 20 | 4 | 0.6 | i | -2.7 | -11
COc1cc(/C=C2/NC(=O)NC2=O)cc(Br)c1OCc1cccc(C(=O)O)c1 | 3 | 0.68 | -3% | -27 | -41 | 37 | nt | -0.7 | -4.2
O=C(N[C@@H]1CC[C@@H](CC(=O)N2CCc3ccccc3C2)O[C@H]1CO)C1CCC1 | nt | nt | nt | -2 | 5 | -3.9 | i | -15 | nt
C[C@@H](O)C#Cc1ccc([C@@H]2[C@@H](CO)N3CCCCN(C(=O)c4ccc(F)cc4)C[C@H]23)cc1 | nt | nt | nt | -1 | 9 | 0.5 | i | -3.9 | nt
CCc1ccnc(NS(=O)(=O)c2ccc3c(c2)CCO3)c1 | 2 | 0.64 | 0% | -2 | 6 | -0.8 | i | 0.0 | 0.8
CCOc1ccccc1NC(=S)N1CCN(c2ccccc2F)CC1 | 2 | nt | -15% | -3 | -6 | 1.7 | i | 3.5 | -2.5
CCOC(=O)c1c(-c2cccc([N+](=O)[O-])c2)csc1NC(=O)CCCOc1ccccc1OC | nt | 0.74 | -13%&13% | nt | nt | nt | nt | nt | 1.1
COC(=O)[C@H]1C[C@@]2(O)CN(S(=O)(=O)c3ccc(C)cc3)C[C@@]2(OC(=O)NCc2ccco2)C[C@H]1C(=O)OC | nt | nt | 2% | 8 | 3 | 2.6 | i | -2.6 | 2.4
O=C(NCC1CC1)[C@H]1[C@H](CO)[C@H]2Cn3c(ccc(-c4cncnc4)c3=O)[C@H]2N1C(=O)NC1CCCC1 | nt | nt | nt | -1 | 0 | 1.0 | i | -1.2 | nt
N#Cc1cccc(NC(=O)CCc2ccc(S(=O)(=O)N3CCOCC3)cc2)c1 | nt | 0.68 | 2% | nt | nt | nt | i | -0.4 | 2.7
CCOC(=O)[C@]12CCCC=C1N(Cc1ccccc1)C(=O)[C@H](CC(=O)NCC1CCCCC1)C2 | nt | nt | nt | -30 | -25 | 0.1 | + | -1.7 | 0.1
CCCCC[C@@H]1C=C(C(=O)O)[C@H](c2ccc(Cl)cc2)N1S(=O)(=O)c1ccc(C)cc1 | nt | nt | nt | -42 | -48 | -4.2 | i | -1.5 | -0.8
Cc1cccc(C(=O)NC(=S)NCc2cccnc2)c1 | 8 | 0.63 | -2% | 0 | 4 | -1.0 | i | -0.9 | -4.0
O=c1c(Cc2ccc(Cl)cc2)c(O)ccn1Cc1ccncc1 | 2 | 0.69 | 6% | 2 | -3 | 2.0 | i | -0.2 | 5.0
Cc1cccc(NC(=O)C2CC(=O)OC23CCCC3)c1 (configuration not stated) | -23 | 0.74 | 22% | nt | nt | nt | nt | nt | -3.9
OCCSc1nc(-c2ccccc2)nc2c1CCC2 | 1 | 0.69 | nt | -29 | -41 | -8.4 | i | -1.9 | 1.4
COc1ccccc1N1CCN(CCCN2CC(=O)N3CCCCC3C2=O)CC1 (configuration not stated) | nt | nt | nt | 21 | 3 | 1.2 | i | -1.9 | -7.1
COc1ccc(CN(C)C[C@@H]2OCCCC[C@@H](C)Oc3ccc(NC(=O)NC(C)C)cc3C(=O)N([C@H](C)CO)C[C@@H]2C)cc1 | nt | nt | nt | 1 | 6 | -2.5 | i | -6.5 | nt
Cc1c(C(c2cccc([N+](=O)[O-])c2O)c2c(C)n(C)n(-c3ccccc3)c2=O)c(=O)n(-c2ccccc2)n1C | 0 | 0.68 | 3% | nt | nt | nt | nt | nt | 2.7
COCCNC(=O)c1cccc(OC2CCN(Cc3ccccc3OCCO)CC2)c1 | -9 | 0.68 | 2% | nt | nt | nt | nt | nt | -4.7
